# High-throughput results deposited in PubChem by Broad Institute.
# UUG fidelity – modulators of yeast start codon fidelity, primary screen, whole organism, S. cerevisiae, single point, plate reader; S. cerevisiae UUG-firefly luciferase reporter, luminescence/redox ratio; activity score, % at 18.7 µM; actives 0.13% (n = 350,000); AID 602363, 2012;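 active = replicate mean at a twofold rise or more, about +100% in these data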;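 also: firefly luciferase made from a UUG start codon reports start codon fidelity; reporter light over untreated wells divided by growth signal over untreated wells; some hits fall short of that in this replicate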
# Env fusion inh – inhibitors of HIV-1 Env-driven cell-cell fusion, primary screen, HeLa-JRFL effector, CEM21 target cells, luciferase | inhibition, % at 12.3 µM | AID 651610, 2012 | actives 1.1% (n = 360,000);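 active = mean replicate inhibition score of at least 50 and every replicate individually at or above 50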;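 also: 0% = plate neutral controls and 100% = maraviroc near 300 nM; one replicate is shown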
# * hit, by the source's call; [ ] = another dose, or the depositor's remark. This is a subset; count on the stated rates, not on these rows.
UUG fidelity | Env fusion inh | smiles
-4.8 | -6.3[16.7 µM] | O=C(CN1CCOCC1)N[C@H]1CC[C@H](CCNC(=O)C2CCCC2)O[C@H]1CO
11.5 | -6.2[16.7 µM] | N#C[C@@H]1[C@@H](c2ccccc2)[C@H](CO)N1S(=O)(=O)c1cccc(F)c1
11.5 | 10.3[16.7 µM] | COc1ccc(NC(=O)N(C)C[C@@H]2Oc3ccc(NC(=O)NC(C)C)cc3CC(=O)N([C@@H](C)CO)C[C@@H]2C)cc1
32.5 | 3.6[16.7 µM] | CCC(=O)N[C@@H]1CC[C@H](CCNC(=O)Nc2ccc(C(F)(F)F)cc2)O[C@@H]1CO
16.0 | 5.5[16.7 µM] | CC(=O)N(C)C[C@@H]1Oc2cc(C#CCC(C)C)ccc2S(=O)(=O)N([C@@H](C)CO)C[C@H]1C
12.1 | -16.6[16.7 µM] | COc1ccc(S(=O)(=O)N(C)C[C@H]2Oc3ccc(NC(=O)Cn4cnnn4)cc3CC(=O)N([C@H](C)CO)C[C@@H]2C)cc1
14.3 | 0.9[16.7 µM] | O=C(C[C@@H]1C=C[C@@H](NC(=O)c2cccnc2)[C@@H](CO)O1)NCc1ccc(Cl)c(Cl)c1
-1.1 | 19.5[16.7 µM] | NCC[C@H]1CC[C@H](NS(=O)(=O)Cc2ccccc2)[C@H](CO)O1
-1.9 | -118.8[16.7 µM] | C[C@H](CO)N1C[C@H](C)[C@@H](CN(C)S(=O)(=O)c2ccccc2)Oc2c(NS(=O)(=O)c3ccc(Cl)cc3)cccc2C1=O
6.6 | 0.4[16.7 µM] | C[C@@H]1CN([C@@H](C)CO)S(=O)(=O)c2ccc(C#CC(C)(C)O)cc2O[C@H]1CN(C)C(=O)CC1CC1
-0.2 | 15.1[16.7 µM] | C[C@H]1CN([C@@H](C)CO)C(=O)c2cc(C#CC(C)(C)O)cnc2O[C@@H]1CN(C)Cc1cncnc1
5.8 | -8.4[16.7 µM] | N#C[C@@H]1[C@@H](c2ccccc2)[C@@H](CO)N1C(=O)c1cc(Cl)cc(Cl)c1
2.1 | -24.7[16.7 µM] | C[C@@H]1CCCCO[C@H](CN(C)C(=O)c2ccccc2)[C@@H](C)CN([C@@H](C)CO)C(=O)c2cc(NC(=O)Cc3ccccc3)ccc2O1
-8.5 | -16.9[16.7 µM] | Cc1cc(C(=O)Nc2cccc3c2O[C@H](CN(C)S(=O)(=O)c2ccc(Cl)cc2)[C@H](C)CN([C@@H](C)CO)C3=O)n(C)n1
2.3 | 6.9[16.7 µM] | C[C@@H]1CN([C@H](C)CO)C(=O)Cc2cc(NC(=O)Cn3cnnn3)ccc2O[C@@H]1CN(C)C
-1.3 | -239.6[16.7 µM] | Cc1ccc(S(=O)(=O)N(C)C[C@H]2Oc3c(NS(=O)(=O)c4ccc(Cl)cc4)cccc3C(=O)N([C@@H](C)CO)C[C@@H]2C)cc1
8.5 | -25.3[16.7 µM] | C[C@H](CO)N1C[C@H](C)[C@@H](CN(C)S(=O)(=O)c2ccc(F)cc2)OCCCC[C@H](C)Oc2ccc(NS(=O)(=O)c3cn(C)cn3)cc2C1=O
0.8 | 5.4[16.7 µM] | COCC#Cc1cnc2c(c1)C(=O)N([C@@H](C)CO)C[C@H](C)[C@@H](CN(C)Cc1ccc3c(c1)OCO3)O2
5.3 | 30.1[16.7 µM] | C[C@@H]1CN([C@@H](C)CO)C(=O)c2cc(NC(=O)NC3CCCCC3)ccc2O[C@@H](C)CCCCO[C@H]1CN(C)C(=O)c1ccccc1
-3.5 | 12.0[16.7 µM] | C[C@H](CO)N1C[C@H](C)[C@H](CN(C)S(=O)(=O)c2cn(C)cn2)OCCCC[C@H](C)Oc2ccc(NC(=O)c3ccccc3)cc2C1=O

# 2 compounds picked at random from those above, as already listed:
UUG fidelity | Env fusion inh | smiles
5.3 | 30.1[16.7 µM] | C[C@@H]1CN([C@@H](C)CO)C(=O)c2cc(NC(=O)NC3CCCCC3)ccc2O[C@@H](C)CCCCO[C@H]1CN(C)C(=O)c1ccccc1
5.8 | -8.4[16.7 µM] | N#C[C@@H]1[C@@H](c2ccccc2)[C@@H](CO)N1C(=O)c1cc(Cl)cc(Cl)c1

# (continued)
UUG fidelity | Env fusion inh | smiles
15.2 | -18.7[16.7 µM] | C[C@H](CO)N1C[C@H](C)[C@H](CN(C)C(=O)Cc2ccncc2)Oc2cc(C3=CCCC3)ccc2S1(=O)=O
7.6 | 7.0[16.7 µM] | CO[C@H]1CN(C)C(=O)c2cc(NC(C)=O)ccc2OC[C@H](C)N(CCC(F)(F)F)C[C@H]1C
8.4 | -8.2[16.7 µM] | C[C@H]1CN([C@@H](C)CO)C(=O)c2cc(NC(=O)Nc3ccc4c(c3)OCO4)ccc2O[C@H]1CN(C)C(=O)Nc1ccc(F)cc1
-18.3 | -14.7[16.7 µM] | C[C@@H]1CN([C@H](C)CO)C(=O)c2cc(NC(=O)CCN3CCOCC3)ccc2O[C@@H]1CN(C)CC1CCCCC1
5.8 | 24.0[16.7 µM] | COc1ccc(S(=O)(=O)Nc2ccc3c(c2)C(=O)N([C@@H](C)CO)C[C@H](C)[C@@H](CN(C)S(=O)(=O)c2cccs2)O3)cc1
11.9 | 8.0[16.7 µM] | C[C@@H]1CCCCO[C@@H](CN(C)S(C)(=O)=O)[C@H](C)CN([C@@H](C)CO)C(=O)c2cc(NC(=O)Nc3ccc(C(F)(F)F)cc3)ccc2O1
26.3 | -7.3[16.7 µM] | O=C(NCC[C@@H]1CC[C@@H](NS(=O)(=O)Cc2ccccc2)[C@@H](CO)O1)C1CCCCC1
13.4 | -118.9[16.7 µM] | C[C@@H]1CCCCO[C@@H](CN(C)C(=O)NC2CCCCC2)[C@@H](C)CN([C@@H](C)CO)C(=O)c2cc(NS(=O)(=O)c3ccc(Cl)cc3)ccc2O1
0.7 | 6.4[16.7 µM] | C[C@H]1CN([C@@H](C)CO)C(=O)c2cc(-c3cccc(C#N)c3)cnc2O[C@@H]1CN(C)Cc1ccc(F)cc1
57.4 | 16.4[16.7 µM] | C[C@H]1CN([C@@H](C)CO)C(=O)c2cc(C#Cc3cccc(F)c3)cnc2O[C@@H]1CN(C)Cc1ccccn1
-4.3 | 2.1[16.7 µM] | Cc1noc(C)c1S(=O)(=O)Nc1ccc2c(c1)C(=O)N([C@@H](C)CO)C[C@@H](C)[C@H](CN(C)CC1CC1)O2
3.4 | 4.3[16.7 µM] | Cc1noc(C)c1S(=O)(=O)Nc1ccc2c(c1)CC(=O)N([C@H](C)CO)C[C@H](C)[C@H](CN(C)C(=O)NC(C)C)O2
-11.2 | 12.9[16.7 µM] | CCC(=O)Nc1ccc2c(c1)OC[C@H](C)NC[C@H](C)[C@@H](OC)CN(C)C2=O
-7.5 | 2.7[16.7 µM] | C[C@@H]1CN([C@@H](C)CO)C(=O)Cc2cc(NC(=O)Nc3ccc(C(F)(F)F)cc3)ccc2O[C@H]1CN(C)Cc1ccc(-c2ccccc2)cc1
4.1 | 8.2[16.7 µM] | C[C@H](CO)N1C[C@H](C)[C@H](CN(C)C(=O)Cc2ccccc2)OCCCC[C@H](C)Oc2ccc(NC(=O)c3ccncc3)cc2C1=O
0.7 | 30.0[16.7 µM] | C[C@H](CO)N1C[C@H](C)[C@@H](CN(C)Cc2ccc(C(F)(F)F)cc2)OCCCC[C@H](C)Oc2ccc(NC(=O)Nc3ccc(F)cc3)cc2C1=O
-8.8 | 7.1[16.7 µM] | C[C@H](CO)N1C[C@H](C)[C@@H](CN(C)C(=O)C2CC2)Oc2ncc(-c3cccnc3)cc2C1=O
7.0 | -1.6[16.7 µM] | CCCC(=O)Nc1ccc2c(c1)OC[C@@H](C)N(C(=O)C1CCCC1)C[C@@H](C)[C@@H](OC)CN(C)C2=O
-1.4 | -3.9[16.7 µM] | CCCC(O)C#Cc1cnc2c(c1)C(=O)N([C@H](C)CO)C[C@H](C)[C@H](CN(C)S(C)(=O)=O)O2 (stereo partly drawn)
-7.1 | 4.2[16.7 µM] | CCC(=O)N[C@H]1C=C[C@@H](CC(=O)NCC2CCCCC2)O[C@H]1CO
5.5 | -10.4[16.7 µM] | Cc1noc(C)c1S(=O)(=O)Nc1ccc2c(c1)CC(=O)N([C@@H](C)CO)C[C@H](C)[C@@H](CN(C)S(=O)(=O)c1ccc(Cl)cc1)O2
-7.1 | 20.3[16.7 µM] | O=C(C[C@@H]1C=C[C@H](NC(=O)C2CC2)[C@H](CO)O1)NCC1CC1
0.2 | 17.2[16.7 µM] | C[C@@H]1CN([C@H](C)CO)C(=O)c2cc(-c3cccnc3)cnc2O[C@H]1CN(C)C(=O)NC1CCCC1
-13.0 | 25.3[16.7 µM] | Cc1ccc(S(=O)(=O)N(C)C[C@H]2Oc3c(NC(=O)Nc4ccc(C(F)(F)F)cc4)cccc3C(=O)N([C@@H](C)CO)C[C@H]2C)cc1
-1.1 | -26.7[16.7 µM] | Cc1cc(C(=O)Nc2cccc3c2O[C@H](CN(C)S(C)(=O)=O)[C@H](C)CN([C@H](C)CO)C3=O)n(C)n1
1.2 | 14.9[16.7 µM] | CC(C)NC(=O)N(C)C[C@H]1Oc2ncc(C3=CCCCC3)cc2C(=O)N([C@@H](C)CO)C[C@H]1C
-15.9 | 14.8[16.7 µM] | CC(C)NC(=O)N[C@@H]1CC[C@@H](CCNC(=O)C2CCOCC2)O[C@H]1CO
-8.3 | -3.7[16.7 µM] | C[C@H]1CN([C@@H](C)CO)C(=O)c2cc(NC(=O)CCN3CCOCC3)ccc2O[C@@H]1CN(C)S(C)(=O)=O
-2.8 | 31.0[16.7 µM] | C[C@H]1CN([C@@H](C)CO)C(=O)c2cc(NS(=O)(=O)c3ccccc3)ccc2O[C@H]1CN(C)S(=O)(=O)c1cccs1
24.8 | -40.4[16.7 µM] | COc1ccc(S(=O)(=O)Nc2ccc3c(c2)C(=O)N([C@H](C)CO)C[C@H](C)[C@H](CN(C)Cc2ccccc2)OCCCC[C@H](C)O3)cc1
10.0 | 16.7[16.7 µM] | C[C@H](CO)N1C[C@H](C)[C@H](CN(C)CC2CCOCC2)Oc2ncc(C#CCc3ccccc3)cc2C1=O
5.2 | -2.3[16.7 µM] | C[C@H]1CN([C@@H](C)CO)C(=O)c2cc(N(C)C)ccc2O[C@@H]1CN(C)S(=O)(=O)c1ccccc1
14.6 | -2.2[16.7 µM] | COc1ccc(S(=O)(=O)N(C)C[C@H]2Oc3ccc(NC(=O)NC(C)C)cc3CC(=O)N([C@@H](C)CO)C[C@@H]2C)cc1
13.6 | 7.6[16.7 µM] | C[C@H]1CCCCO[C@H](CN(C)C(=O)c2ccccc2)[C@@H](C)CN([C@@H](C)CO)C(=O)c2cc(NC(=O)Cc3ccccc3)ccc2O1
11.8 | 7.2[16.7 µM] | COc1ccc(NC(=O)Nc2ccc3c(c2)C(=O)N([C@H](C)CO)C[C@@H](C)[C@H](CN(C)Cc2ccc(Oc4ccccc4)cc2)O3)cc1
-1.0 | 0.1[16.7 µM] | CNC[C@@H]1OCCCC[C@@H](C)Oc2ccc(NC(=O)Nc3cccc4ccccc34)cc2C(=O)N([C@H](C)CO)C[C@H]1C
-11.5 | -8.3[16.7 µM] | C[C@H]1CCCCO[C@@H](CN(C)S(=O)(=O)c2ccc(Cl)cc2)[C@@H](C)CN([C@@H](C)CO)C(=O)c2cc(NS(=O)(=O)c3ccc(Cl)cc3)ccc2O1
7.8 | 7.0[16.7 µM] | C[C@H](CO)N1C[C@H](C)[C@H](CN(C)C(=O)Nc2ccccc2)Oc2ccc(NC(=O)CCC(F)(F)F)cc2CC1=O
27.5 | 2.2[16.7 µM] | O=C(C[C@H]1CC[C@H](NC(=O)Nc2ccc(F)cc2)[C@H](CO)O1)NCCN1CCCC1
-18.3 | 66.7*[16.7 µM] | C[C@@H]1CN([C@@H](C)CO)C(=O)c2cc(NC(=O)c3ccncc3)ccc2O[C@H]1CN(C)Cc1ccncc1

# Individual results from the results shown:
# CCC(=O)Nc1ccc2c(c1)OC[C@H](C)NC[C@H](C)[C@@H](OC)CN(C)C2=O in Env fusion inh shows 12.9[16.7 µM]
# CCC(=O)N[C@@H]1CC[C@H](CCNC(=O)Nc2ccc(C(F)(F)F)cc2)O[C@@H]1CO in UUG fidelity shows 32.5
# Cc1ccc(S(=O)(=O)N(C)C[C@H]2Oc3c(NC(=O)Nc4ccc(C(F)(F)F)cc4)cccc3C(=O)N([C@@H](C)CO)C[C@H]2C)cc1 in Env fusion inh shows 25.3[16.7 µM]

# Following part.
UUG fidelity | Env fusion inh | smiles
-10.3 | -4.0[16.7 µM] | CCCNC(=O)C[C@H]1C[C@H]2c3cc(NC(=O)NC4CCCC4)ccc3O[C@H]2[C@H](CO)O1
3.0 | -9.4[16.7 µM] | Cc1ccc(S(=O)(=O)Nc2ccc3c(c2)C(=O)N([C@H](C)CO)C[C@@H](C)[C@@H](CN(C)C(=O)Nc2ccccc2)OCCCC[C@@H](C)O3)cc1
-7.8 | -11.3[16.7 µM] | C[C@H]1CN([C@@H](C)CO)C(=O)c2cc(Br)cnc2O[C@H]1CN(C)Cc1ccc2c(c1)OCO2
-5.9 | -22.2[16.7 µM] | C[C@@H]1CCCCO[C@@H](CN(C)Cc2ccncc2)[C@H](C)CN([C@H](C)CO)C(=O)c2cc(NC(=O)Nc3cccc4ccccc34)ccc2O1
35.4 | 13.5[16.7 µM] | C[C@H]1CN([C@@H](C)CO)C(=O)c2cc(C#CCC3CCCC3)cnc2O[C@@H]1CN(C)Cc1ccccn1
2.4 | 7.0[16.7 µM] | CNC(=O)C[C@@H]1CC[C@@H]2[C@H](COc3ccc(NC(=O)Nc4ccc(F)cc4)cc3C(=O)N2C)O1
-21.0 | -12.9[16.7 µM] | CO[C@H]1CN(C)C(=O)c2ccc(NS(C)(=O)=O)cc2OC[C@H](C)N(Cc2cncnc2)C[C@H]1C
-12.3 | -31.7[16.7 µM] | C[C@@H]1CN([C@H](C)CO)C(=O)c2cc(NC(=O)C3CCCCC3)ccc2O[C@@H](C)CCCCO[C@H]1CN(C)S(=O)(=O)c1cccs1
3.0 | 17.2[16.7 µM] | COc1ccc(S(=O)(=O)N(C)C[C@H]2Oc3c(NC(=O)c4nc5ccccc5s4)cccc3C(=O)N([C@H](C)CO)C[C@H]2C)cc1
